Mtb betalactam – beta-lactam sensitization of Mtb H37Rv, H37Rv. hit rate 0.27% among 330,000. M. tuberculosis H37Rv growth with meropenem, percent inhibition; hits of this screen are not shown here. inhibition, % at 25 µM. AID 434955, 2010;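 active = about 74% or more and at least 40 points above the plate without the antibiotic, then above 30% in a dose series; inconclusive = first-round hits that could not be retested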;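 also: growth measured after seven days incubation then overnight dye step; 0% = bacteria only wells and 100% = bacteria with antibiotic; twin plates without the antibiotic show which effects depend on it; some results filed as inactive read as strong as hits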
Arbovirus inh – antivirals against arbovirus infection, primary screen, cell-based, full library, 10K replicate subset; AID 1251, 2008; inhibition, % at 10 µM; arbovirus infection cell-based antiviral screen; hit rate 0.37% among 200,000;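 active = inhibition from about 30%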;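 also: bluetongue infection of BSR cells; cell survival read as ATP light after 72 h; 0% = infected wells without compound and 100% = uninfected wells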
YopH inh – YopH tyrosine phosphatase inhibitors, primary screen, biochemical, fluorescence Ex485/Em525. YopH tyrosine phosphatase [Yersinia enterocolitica]. inhibition, %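 (about 10 µM by stock and volumes)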. hit rate 0.16% among 140,000;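 active = inhibition of 50% or more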;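 also: controls were vehicle for no effect and minimum signal wells for full effect; inactives centre near -20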
RecA intein inh – Mtb RecA intein splicing inhibitors, primary screen, biochemical, fluorescence, HTS; inhibition, %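 (about 9 µM by stock and volumes)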; hit rate 0.75% among 290,000; AID 2221, 2009; Protein RecA (Mycobacterium tuberculosis (strain ATCC 25618 / H37Rv)), P9WHJ3; cell-free RecA intein splicing; in the data active = inhibition above about 30%; inconclusive = no clear call, values can overlap the other calls;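 also: 0% = vehicle wells and 100% = reference inhibitor control wells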
Target sequence (P9WHJ3 whole entry, looked up): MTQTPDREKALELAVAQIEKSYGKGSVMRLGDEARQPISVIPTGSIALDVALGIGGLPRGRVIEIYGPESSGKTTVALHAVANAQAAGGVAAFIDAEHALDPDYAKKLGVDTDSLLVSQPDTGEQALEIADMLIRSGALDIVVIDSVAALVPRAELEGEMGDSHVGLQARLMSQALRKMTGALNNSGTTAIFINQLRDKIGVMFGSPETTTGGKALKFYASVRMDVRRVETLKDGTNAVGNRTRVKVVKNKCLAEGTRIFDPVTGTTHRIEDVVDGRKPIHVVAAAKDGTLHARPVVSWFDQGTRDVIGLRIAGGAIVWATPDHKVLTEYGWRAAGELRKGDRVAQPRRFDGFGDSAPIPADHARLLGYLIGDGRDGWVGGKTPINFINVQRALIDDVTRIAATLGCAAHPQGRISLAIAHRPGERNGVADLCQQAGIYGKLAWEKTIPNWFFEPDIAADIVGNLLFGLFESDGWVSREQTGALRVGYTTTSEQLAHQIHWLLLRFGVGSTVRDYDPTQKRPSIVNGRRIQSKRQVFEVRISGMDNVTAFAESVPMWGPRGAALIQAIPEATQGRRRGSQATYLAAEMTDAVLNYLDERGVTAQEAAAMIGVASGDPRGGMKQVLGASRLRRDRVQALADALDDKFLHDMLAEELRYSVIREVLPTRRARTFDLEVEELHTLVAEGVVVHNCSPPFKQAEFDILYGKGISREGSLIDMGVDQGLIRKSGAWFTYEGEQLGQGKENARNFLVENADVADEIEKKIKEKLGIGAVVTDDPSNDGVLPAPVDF
Mtb growth – M. tuberculosis H37Rv growth inhibitors, H37Rv strain (AID 1626); M. tuberculosis H37Rv growth inhibition; higher % means a stronger effect; one-dose inhibition, % at 10 µM; IC50 in µM for titrated hits; hit rate 0.95% among 220,000;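 active = confirmed in a dose series; inconclusive = inhibition above 80% but not taken into the dose series; inactive = below 80% or under 30% at every dose of the series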;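 also: bacteria incubated seven days before Alamar blue readout; 0% = bacteria only wells and 100% = bacteria with antibiotic wells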
Arbovirus inh repeat – further read-out of Arbovirus inh, marked with its call; inhibition, %; measured here: 10K subset replicate screen; many hits read low in the repeat;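 first of two repeat runs on a subset; 0% = infected and 100% = uninfected wells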
Numbers without * were called inactive; ? = inconclusive; . = no result given. Only part of the results is shown, so the mix of outcomes need not match the whole.

SMILES	Mtb betalactam	Arbovirus inh	YopH inh	RecA intein inh	Mtb growth	others
C/C(=N/NC(=O)c1cccc(Br)c1)C1CC2CCC1C2 (centres undefined)	-13	.	.	1.0	.
CCN1C(=O)CSc2ccc(C(=O)NCc3ccccc3)cc21	-7	.	.	6.6	.
O=C(c1ccc(Cl)cc1)c1ccc(OCC(O)CN2CCOCC2)cc1 (centres undefined)	2	1	-4	1.7	1%
COc1ccc(NC(=O)Cc2ccc(C)c(C)c2)cc1Cl	-3	10	.	5.0	4%
CC1(CC(=O)Nc2ccccc2)NC(=S)N(c2ccccc2)N1 (centres undefined)	2	-1	.	4.2	3%
CC(C)CC(=O)C1CCCN(C(=O)c2ccc3oc(Cc4ccccc4)nc3c2)C1 (centres undefined)	-4	.	.	3.5	.
O=C(NNC(=O)c1cc(-c2ccccc2Cl)nc2ccccc12)c1csc(N2CCOCC2)n1	85	.	.	2.3	.
COc1ccc(NC(=O)CSc2cn[nH]n2)c(OC)c1	3	.	.	-0.6	.
CCn1c(CSc2nc3ccccc3s2)nnc1SCC(N)=O	-2	2	-63	.	-21%
C=CCNc1nc(C(=O)OCC(=O)c2ccc(Cl)cc2)cs1	6	.	.	0.3	.
CCN(CC)C(=S)NC(=O)c1cccnc1	1	19	.	-1.2	-8%
Cc1ccc(CNC(=O)C2CC(c3ccccc3C(F)(F)F)=NO2)cc1 (centres undefined)	-2	.	.	3.3	0%
O=C(Cc1cccs1)Nc1ccc(S(=O)(=O)N2CCCCC2)cc1	-1	1	-9	.	8%
CC1CC(C)(C)NC(=S)N1CC(=O)NCc1ccc(Cl)cc1 (centres undefined)	-10	-1	-5	-0.1	0%
COc1ccc(C2CC(c3ccc(Cl)cc3Cl)Nc3nc(N)nn32)cc1 (centres undefined)	?	11	-8	3.3	8%	Arbovirus inh repeat=12

For reference, 2 of the compounds above:
SMILES	Mtb betalactam	Arbovirus inh	YopH inh	RecA intein inh	Mtb growth	others
C/C(=N/NC(=O)c1cccc(Br)c1)C1CC2CCC1C2 (centres undefined)	-13	.	.	1.0	.
CCN1C(=O)CSc2ccc(C(=O)NCc3ccccc3)cc21	-7	.	.	6.6	.

Further entries.
SMILES	Mtb betalactam	Arbovirus inh	YopH inh	RecA intein inh	Mtb growth	others
COc1ccc(CCNC(=O)C(=O)NCc2ccccn2)cc1	0	21	.	0.5	5%
CC(=O)c1ccc(NC(=O)/C=C/c2ccc(C)cc2)cc1	19	2	-25	0.5	-1%
c1ccc(CN2CCN(CCCNc3ccc4nnc(-c5ccccc5)n4n3)CC2)cc1	98	-6	-35	0.7	17%	Arbovirus inh repeat=9
O=C(Nc1cccc(OCC(=O)N2CCOCC2)c1)c1cccc(Cl)c1	-10	.	.	-2.4	.
COc1ccccc1CNC(=O)CCC1N=C2c3ccccc3N=C(SCC(=O)NCC3CCCO3)N2C1=O (centres undefined)	1	.	.	-2.1	.
CC(C)(C)NS(=O)(=O)c1ccc(NC(=O)c2cc(-c3ccccc3)nc3ccccc23)cc1	-9	-3	-22	7.2	3%
CNc1ccc(Oc2nc([N+](=O)[O-])nn2C)cc1	3	6	.	-2.2	9%
CCCCNS(=O)(=O)c1cc2c3c(c1)CCN3C(=O)CC2	0	.	.	-4.8	.
CC(=O)Nc1ccc(OCCOc2ccc([N+](=O)[O-])cc2)cc1	-10	.	.	1.8	9%
CCOc1ccc(Nc2cc(C)nc3ccc(C)cc23)cc1	61	.	.	1.8	.
Cc1ccc(Cn2c(SCC(C)C)nc3c2c(=O)[nH]c(=O)n3C)cc1	22	-1	-49	1.1	2%
Cc1ccccc1-c1nnc(SCC(=O)NCc2ccc3c(c2)OCO3)n1C	-20	5	-24	-0.5	-12%
CN(C)C(=O)CSCc1c(Cl)cccc1Cl	-13	3	9	0.9	-5%
CC(C)=CCCC(C)N(C=O)C(C)CCC=C(C)C (centres undefined)	-14	.	-15	1.4	9%
CCOC(=O)C1(Cc2ccccc2C(F)(F)F)CCN(CCCn2cccn2)CC1	-8	-18	.	0.7	-3%
C=CCSc1nnc(-c2sc(-c3ccccc3)nc2C)n1C	-14	4	-39	-4.5	6%
CCOC(=O)/C=C1\CN(C(C)c2ccccc2)S(=O)(=O)c2ccccc21 (centres undefined)	-2	.	.	3.6	.
Clc1ccc(-c2noc(CN3CCCC3)n2)cc1	-1	1	-14	0.1	8%
CCCc1cc(=O)oc2c3c(cc(OCC(=O)N[C@@H](CSC)C(=O)O)c12)OC(C)(C)CC3	-4	.	.	0.8	.
O=C1C(=C(O)c2ccccc2)C(=O)c2ccccc21	-4	3	23	0.1	2%	Arbovirus inh repeat=-2
N#Cc1cccc(NC(=O)N2CCC(c3nc4c(nnn4Cc4cccc(Cl)c4)c(=O)[nH]3)CC2)c1	99	-6	-4	-0.7	29%
CC(Nc1ncnc2sccc12)c1ccccc1 (centres undefined)	3	.	.	0.4	.
O=C(NC1CCCCC1)C(c1ccncc1)N(Cc1ccccc1)C(=O)c1ccc(-c2ccccc2)[nH]1 (centres undefined)	11	-27	-45	11	.
c1cncc(CNc2nc(N3CCOCC3)nc(N3CCOCC3)n2)c1	0	-1	-8	5.6	-4%	Arbovirus inh repeat=0
O=C(Nc1ccc(Br)cc1)N1CCCC(O)C1 (centres undefined)	-8	6	.	1.0	0%
CCOC(=O)CSc1nnc(CNc2ccccc2Cl)n1-c1ccccc1	?	1	-6	-1.1	3%
Cc1c(Cl)cccc1Nc1ccccc1C(=O)O	0	29	.	5.9	7%
CCOC(=O)C1/C(=N\O)CC(C)(O)C(C(=O)OCC)C1c1ccc(N(C)C)cc1 (centres undefined)	-1	7	-4	-3.6	-9%
O=C(COC(=O)C1(c2ccccc2F)CCCC1)N1CCc2ccccc21	7	-2	5	2.1	7%
CC1Sc2ccc(S(=O)(=O)CCC(=O)NCc3ccccc3Cl)cc2NC1=O (centres undefined)	-4	.	.	0.3	.

Reprinted from the listing (18 entries):
SMILES	Mtb betalactam	Arbovirus inh	YopH inh	RecA intein inh	Mtb growth	others
CN(C)C(=O)CSCc1c(Cl)cccc1Cl	-13	3	9	0.9	-5%
CC(C)=CCCC(C)N(C=O)C(C)CCC=C(C)C (centres undefined)	-14	.	-15	1.4	9%
CCOC(=O)C1(Cc2ccccc2C(F)(F)F)CCN(CCCn2cccn2)CC1	-8	-18	.	0.7	-3%
C=CCSc1nnc(-c2sc(-c3ccccc3)nc2C)n1C	-14	4	-39	-4.5	6%
CCOC(=O)/C=C1\CN(C(C)c2ccccc2)S(=O)(=O)c2ccccc21 (centres undefined)	-2	.	.	3.6	.
Clc1ccc(-c2noc(CN3CCCC3)n2)cc1	-1	1	-14	0.1	8%
CCCc1cc(=O)oc2c3c(cc(OCC(=O)N[C@@H](CSC)C(=O)O)c12)OC(C)(C)CC3	-4	.	.	0.8	.
O=C1C(=C(O)c2ccccc2)C(=O)c2ccccc21	-4	3	23	0.1	2%	Arbovirus inh repeat=-2
N#Cc1cccc(NC(=O)N2CCC(c3nc4c(nnn4Cc4cccc(Cl)c4)c(=O)[nH]3)CC2)c1	99	-6	-4	-0.7	29%
CC(Nc1ncnc2sccc12)c1ccccc1 (centres undefined)	3	.	.	0.4	.
O=C(NC1CCCCC1)C(c1ccncc1)N(Cc1ccccc1)C(=O)c1ccc(-c2ccccc2)[nH]1 (centres undefined)	11	-27	-45	11	.
c1cncc(CNc2nc(N3CCOCC3)nc(N3CCOCC3)n2)c1	0	-1	-8	5.6	-4%	Arbovirus inh repeat=0
O=C(Nc1ccc(Br)cc1)N1CCCC(O)C1 (centres undefined)	-8	6	.	1.0	0%
CCOC(=O)CSc1nnc(CNc2ccccc2Cl)n1-c1ccccc1	?	1	-6	-1.1	3%
Cc1c(Cl)cccc1Nc1ccccc1C(=O)O	0	29	.	5.9	7%
CCOC(=O)C1/C(=N\O)CC(C)(O)C(C(=O)OCC)C1c1ccc(N(C)C)cc1 (centres undefined)	-1	7	-4	-3.6	-9%
O=C(COC(=O)C1(c2ccccc2F)CCCC1)N1CCc2ccccc21	7	-2	5	2.1	7%
CC1Sc2ccc(S(=O)(=O)CCC(=O)NCc3ccccc3Cl)cc2NC1=O (centres undefined)	-4	.	.	0.3	.

New compounds follow
SMILES	Mtb betalactam	Arbovirus inh	YopH inh	RecA intein inh	Mtb growth	others
O=C(N/N=C/c1ccco1)c1ccc(NC(=O)C2CCCCC2)cc1	2	.	.	-1.2	.
CCOC(=O)c1ccc[n+](CC(=O)c2ccccc2)c1	-7	0	-13	2.2	2%
COc1cccc(CNC(=O)c2ccc3nc[nH]c3c2)c1	2	-6	-43	1.5	-2%
CN1CCN(/N=C/c2ccc(-c3ccccc3)cc2)CC1	6	-25	.	1.5	9%
CCOC(=O)C1CCCN(S(=O)(=O)c2ccc(-c3cc(C)no3)s2)C1 (centres undefined)	-2	.	.	1.5	.
O=S(=O)(Nc1cccnc1)c1ccccc1	-8	1	.	0.8	-8%
CCn1c(SCC(=O)Nc2cccnc2Cl)nnc1-c1ccccc1	-3	5	11	-0.9	13%
CCOC(=O)C1CCN(c2ncnc3c2nnn3Cc2ccccc2Cl)CC1	1	-4	.	6.0	1%
CSc1ccc(/C=N/NC(=O)c2ccc(C)c(C)c2)cc1	29	-13	-2	-0.4	33%
S=c1[nH]nc(-c2cc(-c3ccco3)[nH]n2)n1-c1cccc2ccccc12	-1	4	-1	11	-7%
CSCC[C@@H](Nc1nc(-c2ccccc2)nc2c1oc1ccccc12)C(=O)O	6	17	-27	0.3	5%
OC(COc1ccc(Br)cc1)CN1CCOCC1 (centres undefined)	-20	-1	-17	1.5	-2%
CCOC(=O)c1ccc(CNC(=O)Cn2nnc(-c3ccccc3F)n2)o1	-1	-1	.	-1.3	0%
Nc1sc(-c2ccccc2)n[n+]1Cc1cccc2cccnc12	59	.	.	3.6	29%
CN1CCN(CC(=O)Nc2ccc(S(=O)(=O)N(C)C)cc2)CC1	-1	.	.	0.0	.
CCOc1ccc2oc(C(=O)N(Cc3nnc(-c4ccccc4Cl)o3)C3CC3)c(C)c2c1	10	.	.	8.9	.
Cc1ccc(NC(=O)COc2ccccc2C(=O)NCCc2ccccc2)cc1	6	.	.	4.9	.
COc1ccc(N2CCN(C(=O)Nc3cccc(C(F)(F)F)c3)CC2)cc1	-6	-8	9	0.8	3%
CCn1c(SCC(=O)Nc2nc(C)cs2)nnc1C(NC(=O)c1ccccc1Cl)C(C)C (centres undefined)	-18	8	-7	-4.6	-10%
CCCn1cc(SCC(=O)Nc2ccc3c(c2)OCO3)c2ccccc21	-2	-16	-3	5.4	2%
CCN(CC)S(=O)(=O)c1ccc2c(c1)c(=O)c(C(=O)NCc1ccc3c(c1)OCO3)cn2C	-2	16	-5	-0.6	-4%
CC(=O)NC1(C(F)(F)F)C(=O)Nc2c1c(=O)[nH]c(=O)n2Cc1ccco1 (centres undefined)	-1	7	-9	.	1%
O=C(CSc1nnc(-c2cnccn2)n1Cc1ccco1)c1ccc2ccccc2c1	-2	12	-54	0.5	.
Cc1cccc(-n2nnnc2SCc2csc(-c3ccccc3)n2)c1	-4	6	6	11	4%
Cc1cc([N+](=O)[O-])c(N2CCC[C@@H]2C(=O)O)c([N+](=O)[O-])c1	-5	2	-2	-1.4	-8%
CC1(C(=O)N2CC3(CC(c4cccc([N+](=O)[O-])c4)=NO3)C[C@H]2C(=O)NCC(N)=O)CC1 (some centres undefined)	3	7	1	-6.0	-8%
CCOC(=O)c1ccc(NCCOC)c([N+](=O)[O-])c1	3	2	.	-1.3	5%
CCOc1ccccc1N1CCN(C(=O)c2ccccc2)CC1	-1	5	6	-1.9	-4%
COc1ccc(CCNC(=O)CCCOc2cc(=O)n(C)c3ccccc23)cc1OC	3	-2	.	-3.3	-5%
CC(C(=O)c1ccccc1)[n+]1cccc(C(N)=O)c1 (centres undefined)	-5	.	.	-1.6	-6%
CCOC(=O)c1ccc(NC(=O)COc2ccc(S(=O)(=O)N3CCCC3)cc2)cc1	-4	1	-13	-0.4	11%
COc1ccccc1-n1cc2ccc([N+](=O)[O-])cc2n1	0	.	.	23	.

Source: PubChem BioAssay
